CtBP-E1A blk – CtBP/E1A binding inhibition. AlphaScreen GST-E1A/His-CtBP binding, 1536-well; stronger effect = lower value; control for the full effect not named in the record. activity change, % (no concentration beside the values). 340,000 tested, 0.49% active; in the data active means activity change below about -65%; inconclusive means about -30% to -65%; inactive means above about -30%; further: on the % scale 0 is the no-effect control and ±100 the full control effect; compound concentration not given in the record
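Homogeneous bead-based format: GST-tagged E1A captured on glutathione donor beads, His-tagged CtBP on nickel acceptor beads; compounds precede bead addition by 2 h at 37 °C.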
TRPML1 blocker – human mucolipin-1 channel inhibition | Q9GZU1 | TRPML1-inducible cells, Ca2+ dye fluorescence, FDSS; stronger effect = lower value; inhibition of EC80 agonist-evoked calcium signal | activity change, negative = inhibition, % (concentration not given with the values) | 390,000 tested, 0.02% active | AID 624415; in the data active means activity change below about -50%; inconclusive means about -30% to -50%; inactive means above about -30%;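 further: stimulus is agonist 54-4 at its EC80 concentration; on the % scale 0 is the no-effect control and ±100 the full control effect; compound concentration not given in the record; the text of the record puts the active cut at -80%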
Target sequence (Q9GZU1 whole entry, looked up): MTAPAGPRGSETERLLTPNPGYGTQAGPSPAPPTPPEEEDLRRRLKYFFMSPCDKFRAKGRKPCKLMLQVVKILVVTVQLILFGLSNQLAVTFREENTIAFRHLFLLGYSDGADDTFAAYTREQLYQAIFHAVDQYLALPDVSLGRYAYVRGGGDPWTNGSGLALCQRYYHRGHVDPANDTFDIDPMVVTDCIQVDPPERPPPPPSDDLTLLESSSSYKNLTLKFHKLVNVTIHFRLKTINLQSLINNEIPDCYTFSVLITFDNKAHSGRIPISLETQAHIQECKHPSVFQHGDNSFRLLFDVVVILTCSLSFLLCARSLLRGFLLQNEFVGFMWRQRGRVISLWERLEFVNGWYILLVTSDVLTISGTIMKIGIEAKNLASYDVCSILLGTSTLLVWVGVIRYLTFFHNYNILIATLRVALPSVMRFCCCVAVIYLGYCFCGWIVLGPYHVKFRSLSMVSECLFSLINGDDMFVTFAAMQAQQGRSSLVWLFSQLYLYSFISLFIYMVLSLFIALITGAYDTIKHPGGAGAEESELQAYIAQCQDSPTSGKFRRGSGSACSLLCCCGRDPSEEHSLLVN
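TRPML1-DL cells, Tet-induced overnight (~16 h, 37 °C) at 1,500 cells/well, were loaded with Ca8 no-wash dye plus quencher for 45-90 min at room temperature. Compounds were pinned during FDSS kinetic reading; agonist 54-4 at EC80 (4 uM final) then added.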
D2 ag – activates the human D2 dopamine receptor; P14416; DiscoveRx PathHunter D2 beta-arrestin, luminescence, 90 min; 100% = 57 uM dopamine signal; activation, % (concentration not given with the values); 360,000 tested, 0.084% active; in the data active = activation above about 40%; inconclusive = about 15% to 40%; inactive = below about 15%; further: compound concentration not given in the record; the text of the record calls up to 30% inactive
Target sequence (P14416 whole entry, looked up): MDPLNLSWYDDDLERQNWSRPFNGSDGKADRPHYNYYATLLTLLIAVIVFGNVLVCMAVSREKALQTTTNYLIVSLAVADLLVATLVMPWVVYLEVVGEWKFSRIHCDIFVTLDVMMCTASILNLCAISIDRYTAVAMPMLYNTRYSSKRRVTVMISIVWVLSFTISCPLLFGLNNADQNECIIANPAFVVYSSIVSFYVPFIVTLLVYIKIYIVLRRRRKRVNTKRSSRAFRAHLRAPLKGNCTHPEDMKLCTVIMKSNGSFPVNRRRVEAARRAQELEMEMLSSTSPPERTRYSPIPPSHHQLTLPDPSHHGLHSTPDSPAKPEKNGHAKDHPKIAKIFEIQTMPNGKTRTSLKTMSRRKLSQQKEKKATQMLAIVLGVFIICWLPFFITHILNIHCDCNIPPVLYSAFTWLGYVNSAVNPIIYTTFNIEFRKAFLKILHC
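Agonist mode: compounds alone added to overnight-plated D2 PathHunter cells for 90 min at 37 C, with 57 uM final dopamine (EC100) defining full response. Beta-arrestin recruitment detected by chemiluminescent reagent, read after 1 h at ambient temperature.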
PINK1 modulator – PINK1 expression modulation. 410,000 tested, 0.2% active. PINK1 immunofluorescence, high-content cytometry, 24 h. Potency, µM (titrated, usually from 76.6 µM), for inactives: at the highest dose activation (PINK1 increase), hits mostly activators; active = well fitted activation curve with a large enough effect; inconclusive = small, poorly fitted or top-dose-only effect; inactive = flat fitted curve, though single readings scatter; cell line not stated here;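 further: potency means the concentration at half of the fitted maximal effect; % of control where 0% means no effect; nearly all actives have a fitted effect of over 65% in size; a mitochondrial uncoupler was the plate control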
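Compound titrations (5 concentrations, 24 h) on a stable cell line; DMSO and CCCP controls. Endpoint: fixed-cell PINK1 immunofluorescence with mitochondrial, cell and nuclear markers, scanned by microplate cytometer.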
Six1-Eya2 inh – inhibitors of human Six1/Eya2 interaction. Q15475+O00167. activity change, % (no concentration beside the values). 360,000 tested, 0.56% active. AlphaScreen GST-Six1/His-Eya2 binding, biochemical; stronger effect = lower value; control for the full effect not named in the record; in the data active = activity change below about -65%; inconclusive = about -30% to -65%; inactive = above about -30%; further: on the % scale 0 is the no-effect control and ±100 the full control effect; compound concentration not given in the record
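Six1/Eya2 binding was read as AlphaScreen signal after compounds were pinned into GST-Six1 plus His-tagged Eya2 (5X stock 250/500 nM) in pH 8.0 Tris/NaCl/TCEP buffer, beads added, then incubated 1 h, 37 C, dark.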
TRPML1 ag – activates the human TRPML1 channel. TRPML1-expressing cells, Ca2+ dye fluorescence, FDSS; host cell line not named in the record; reference of the full effect not given here. AID 624414. 410,000 tested, 0.12% active. activation, % (concentration not given with the values). Q9GZU1; in the data active = activation above about 50%; inconclusive = about 30% to 50%; inactive = below about 30%; further: 0% is about no effect; the text of the record puts the active cut at 80%
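Calcium fluorescence on an FDSS kinetic reader gave the read-out. Tet-induced TRPML1-DL cells were plated overnight, dye-loaded (Ca8 with quencher, 45-90 min, room temperature, dark), then read 110 s after compound addition, and again 110 s after 4uM final 54-4 (EC80).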
The depositor's hits bear a star; ? = inconclusive; · = no result given; [ ] = dose if it differs, or a comment.

SMILES	CtBP-E1A blk	TRPML1 blocker	D2 ag	PINK1 modulator	Six1-Eya2 inh	TRPML1 ag
Cc1ccc(N=C2NC(=O)/C(=C\c3ccsc3)S2)c(C)c1	-10	1	-4.3	10%	-17	1.2
Cc1nc(C(=O)N2CCCC(C(=O)c3cccc(OC(C)C)c3)C2)cs1 (configuration not stated)	-4	2	1.5	-1.2%	11	-0.2
CN1CCC(N(C)C(=O)CNC(=O)c2ccc(C(C)(C)C)cc2)CC1	-6	17	-2.4	1.2%	12	0.6
CC(C(=O)N(C)C)N(C#N)c1nc(N(C)C)nc(N(C)C)n1 (configuration not stated)	16	-11	-7.6	0.0%	6	-0.9
Clc1ccc(-c2cnc3n2CCC3)cc1	-14	-1	-2.4	20%[38.3 µM]	-16	-0.6
CCCCN1CCc2nc(N3CCN(c4ncccn4)CC3)ncc2C1	·	3	·	11%	·	0.2
N#Cc1nc(-c2ccc(F)cc2)oc1N1CCN(C(=O)c2ccco2)CC1	5	1	0.4	2.4%	-15	-0.2
COc1ccc(NC(=O)CS(=O)(=O)c2ccc(F)cc2)cc1	7	22	-3.9	0.7%	3	1.3
Cc1ccccc1C(=O)N1CCC2CC1c1cc(Cl)ccc12 (configuration not stated)	3	8	-0.1	0.0%	-2	-0.9
CNS(=O)(=O)c1cccc(C(=O)NC2CCCc3ccccc32)c1 (configuration not stated)	3	-5	1.7	0.5%	-3	-0.4
Cc1cc(C(=O)COC(=O)c2ccc(O)cc2)c(C)n1Cc1ccco1	6	0	-0.3	-0.5%	-21	-0.1
CC1Cc2ccccc2N1CC(=O)NCc1ccc2c(c1)OCO2 (configuration not stated)	-11	4	0.2	0.7%	-8	1.7
CCCCN(CC)C(=O)CSc1nc2n[nH]c(C)c2c(=N)n1-c1cccc(OC)c1	·	22	·	4.2%	·	3.1
Cc1cccc(N2CN(S(=O)(=O)c3cccc([N+](=O)[O-])c3)c3nc4ccccc4nc32)c1	-4	4	1.3	0.1%	-6	-0.4
Oc1ccc(Cl)cc1-c1cc(C(F)(F)C(F)F)nc(-c2ccccc2)n1	-7	-6	-3.5	?	-1	0.4

Taken from above (five entries):
SMILES	CtBP-E1A blk	TRPML1 blocker	D2 ag	PINK1 modulator	Six1-Eya2 inh	TRPML1 ag
Cc1ccc(N=C2NC(=O)/C(=C\c3ccsc3)S2)c(C)c1	-10	1	-4.3	10%	-17	1.2
Cc1nc(C(=O)N2CCCC(C(=O)c3cccc(OC(C)C)c3)C2)cs1 (configuration not stated)	-4	2	1.5	-1.2%	11	-0.2
CN1CCC(N(C)C(=O)CNC(=O)c2ccc(C(C)(C)C)cc2)CC1	-6	17	-2.4	1.2%	12	0.6
CC(C(=O)N(C)C)N(C#N)c1nc(N(C)C)nc(N(C)C)n1 (configuration not stated)	16	-11	-7.6	0.0%	6	-0.9
Clc1ccc(-c2cnc3n2CCC3)cc1	-14	-1	-2.4	20%[38.3 µM]	-16	-0.6

Next part:
SMILES	CtBP-E1A blk	TRPML1 blocker	D2 ag	PINK1 modulator	Six1-Eya2 inh	TRPML1 ag
COC(=O)c1cc(C#N)c(N2CC(C)OC(C)C2)nc1C (configuration not stated)	-8	?	3.4	0.9%	-2	0.9
CSc1ccccc1-n1nnnc1SCc1ccccc1	11	9	-6.0	-0.1%	18	2.4
Cc1ccnc(NC(=O)CCCNC(=O)c2ccc(Cl)cc2)c1	2	-5	1.2	0.3%	4	-0.2
Cc1ccc(S(=O)(=O)C2CCCCC2=O)cc1 (configuration not stated)	9	7	-1.9	-0.6%	7	-0.4
CCc1nc(SCc2cc(=O)c3cc(C)ccc3[nH]2)n[nH]1	·	13	·	1.4%	·	1.5
Cc1ccc(NC(=O)CSC2=C(C#N)C(c3ccc4c(c3)OCO4)CC(=O)N2)cc1C (configuration not stated)	-2	27	-3.1	-1.4%[38.3 µM]	-1	0.0
COC(=O)c1nnn(CC(=O)NC(=O)Nc2cccc(Cl)c2C)c1C(=O)OC	·	14	-6.6	-0.6%	-2	0.0
CC(=O)n1cc([C@@H]2C=C(C(=O)N3CCN(Cc4ccc5c(c4)OCO5)CC3)O[C@H](OCCCCO)C2)c2ccccc21	-7	17	1.9	0.0%	-10	0.0
CC(C)(C)OC(=O)N1CCC(C(=O)O)CC1	-1	-13	-4.0	2.9%	4	0.0
CS(=O)(=O)N(CC(=O)Nc1ccc(S(=O)(=O)N2CCCC2)cc1)c1cccc(F)c1	-3	10	-2.9	0.5%	-3	0.8
CC(C)(C)Cc1c(-c2ccc(C#N)cc2)nc2c(Cl)cc(C(F)(F)F)cn12	1	-15	2.2	35µM*	11	72*
COc1ccc(Nc2nnc(SCC(=O)Nc3cc(C)on3)s2)cc1	-2	-5	0.6	5.2%	0	0.0
CCOC(=O)C1=C(c2ccccc2)NC(SCC(=O)NC2CCCCC2)=C(C#N)C1c1ccco1 (configuration not stated)	8	5	-1.9	-2.8%[38.3 µM]	-9	-0.6
COc1ccc(N(C=O)C(=S)SC)cc1	5	2	-0.8	-0.1%	2	4.1
Cc1ccc(NC(=O)CC2S/C(=N/N=C3/NC(=O)CS3)NC2=O)cc1 (configuration not stated)	-23	27	-3.3	-0.3%	-75*	-1.3
CCOc1ccc2nc(/N=C/c3c(C)[nH]n(-c4ccc(C)cc4)c3=O)sc2c1	-6	3	-0.3	0.0%	?	1.7
CCOc1ccc(-n2nc3ccc(NC(=O)CC)cc3n2)cc1	6	14	-1.7	5.5%	10	0.2
Cc1ccccc1C(=O)OC(C)CN1CCOCC1 (configuration not stated)	·	-8	-9.2	-1.8%	9	0.2
CC(C)(C)CC(=O)N[C@@H](Cc1ccccc1)c1nc2ccccc2[nH]1	-4	16	12	3.9%	-2	-0.5
CCn1c(C)nc([N+](=O)[O-])c1C(=O)O	7	-7	-3.8	-0.2%	7	-0.3
COc1ccc(S(=O)(=O)NC2CCCCC2)cc1C	-15	-3	2.7	-0.9%[38.3 µM]	0	1.1
Cc1cc2ncn(CCOc3ccccc3C#N)c2cc1C	-9	7	-2.9	-0.9%	3	-0.3
CCC(=O)N(C)CCc1cc2c(c(OC)c1/C=N/NS(=O)(=O)c1ccc(C)cc1)OCO2	4	-16	-4.3	0.1%	-4	0.8
COc1ccc(NCc2ccsc2)cc1	-14	-18	-3.5	6.4%	-24	1.7
CCCSCCCNC(=O)C1CCN(c2nc3ccccc3nc2C(F)(F)F)CC1	·	-11	·	0.2%	·	-0.5
Cc1cc(Nc2cccc(Cl)c2)nc2ccc(NC(=O)c3cccnc3)cc12	·	19	·	-1.6%	·	-1.1
Cc1cccc(NC(=O)c2ccc([N+](=O)[O-])o2)c1	-4	-10	8.2	-2.6%	-6	-0.9
CN(C)S(=O)(=O)c1cccc(NC(=O)c2cc3c(=O)n4ccccc4nc3s2)c1	-9	-5	2.5	1.9%	-17	0.0
CCOc1ccc2nc(SC3CC(=O)N(c4ccc(OC)cc4OC)C3=O)sc2c1 (configuration not stated)	2	12	-0.3	1.7%	-9	1.9
CC(=O)N1c2ccc(S(=O)(=O)NCCC(=O)Nc3ccc(C)cn3)cc2CC1C (configuration not stated)	·	-2	2.2	2.1%	10	0.1

Rewritten field by field: entries from further up
canonical_smiles: CCCSCCCNC(=O)C1CCN(c2nc3ccccc3nc2C(F)(F)F)CC1
  CtBP-E1A blk: · | TRPML1 blocker: -11 | D2 ag: · | PINK1 modulator: 0.2% | Six1-Eya2 inh: · | TRPML1 ag: -0.5
canonical_smiles: Cc1cc(Nc2cccc(Cl)c2)nc2ccc(NC(=O)c3cccnc3)cc12
  CtBP-E1A blk: · | TRPML1 blocker: 19 | D2 ag: · | PINK1 modulator: -1.6% | Six1-Eya2 inh: · | TRPML1 ag: -1.1

(more compounds)
SMILES	CtBP-E1A blk	TRPML1 blocker	D2 ag	PINK1 modulator	Six1-Eya2 inh	TRPML1 ag
COc1ccc(CCNC(=O)CN(C)S(=O)(=O)c2ccc(Br)s2)cc1OC	-4	-8	-4.2	1.2%	2	-0.8
CC1CCc2c(sc(NC(=O)CSc3ncnc4c3cnn4-c3ccccc3Cl)c2C#N)C1 (configuration not stated)	-2	-4	-4.0	1.8%	-7	-0.3
COC(=O)c1cc(NC(=O)Cc2coc3cc(OC)ccc23)cc(C(=O)OC)c1	-15	7	0.3	-0.7%	-15	1.3
CCOC(=O)c1scc(-c2ccccc2)c1S(=O)(=O)N1CCN(c2ccccc2OC)CC1	·	15	·	5.1%	·	0.5
CCOC(=O)CC(NS(=O)(=O)c1ccc2[nH]c(=O)sc2c1)c1ccc(C)cc1 (configuration not stated)	4	3	3.7	3.5%	4	-0.3
CC(=O)Nc1ccc(-c2ccnc3c2CC(C(=O)Nc2ccc(C(C)C)cc2)O3)cc1 (configuration not stated)	-5	·	9.9	0.7%	-9	-0.3
CC(=O)N1CCN(C(=O)CSc2nc3c(cnn3-c3ccccc3)c(=O)[nH]2)CC1	-1	11	-1.9	3.3%	-6	-0.8
Cc1cc(C)c2nc(C(F)(F)F)c(C#N)c(N)c2c1	4	23	-1.0	-0.8%	7	-0.6
Cc1ccc(C(=O)Nc2c(C)n(C)n(-c3ccccc3)c2=O)cc1	4	-7	-1.2	-1.0%	6	-0.8
COc1ccccc1CNC(=O)c1oc2ccc3c(c2c1C)C(=O)CC(C)(C)O3	·	-4	·	-1.1%	·	4.8
CC(C)C1Cc2[nH][nH]c(=O)c2C(C2CC2)O1 (configuration not stated)	-1	·	·	1.7%	-3	0.4
CC(=NO)c1ccc2c(c1)C(=NO)c1ccccc1-2	0	-9	13	-0.9%	-8	0.8
CC(C)Cc1nc2oc3c(Cl)ncnc3c2c2c1CCC2	6	11	-2.1	-2.2%[38.3 µM]	1	0.6
Cn1c(=O)c2nc(-c3ccccc3)c(-c3ccccc3)nc2n(C)c1=O	5	-16	-3.9	0.5%	-3	-0.3
Cc1nn(C)c(C)c1S(=O)(=O)N1CCCC(C(=O)NC2CCCCCC2)C1 (configuration not stated)	1	-7	0.8	3.9%	0	-0.2
CCCCN(C)C(=O)CN1C(=O)CCn2nc(-c3cn(C)c4ccccc34)cc21	·	-4	·	1.6%	·	0.7
O=C(Nc1nnc(-c2cccnc2)s1)c1cccs1	·	2	-3.1	-0.8%	20	-0.4
COc1cc(C(=O)N/N=C/c2ccc(OC(=O)c3ccccc3Cl)cc2)ccc1O	-14	-12	2.0	1.7%	-9	1.9
O=C(NC1CCN(C(=O)NCc2ccccc2)CC1)c1cccc(F)c1	2	-6	-2.8	2.2%	3	0.3
CC1CN(C)CCC1OC(=O)c1ccccc1 (configuration not stated)	-1	-2	4.5	-0.7%	1	0.6
CN(C)CCOC1c2ccccc2CSc2ccccc21 (configuration not stated)	1	11	-1.7	0.9%	-9	0.3
Cc1cc(NC(=O)c2ccc(C#N)cc2)on1	·	29	-1.6	-0.2%	5	0.0
CC(CC(=O)NNC(=O)c1ccncc1)c1ccccc1 (configuration not stated)	1	3	0.3	0.7%	6	0.3
O=C(CN(Cc1ccccc1)S(=O)(=O)c1cccc(C(F)(F)F)c1)NC1CCCCC1	-2	-10	-0.2	6.3%	-1	1.0
COC1(OC)N=C(N)C2(C#N)C(c3ccccc3)NC(C)=CC12C#N (configuration not stated)	-4	27	-4.3	2.0%	3	-0.3
Cc1ccc(Cn2cc(CN3CC(N4CCN(C5CCN(C)CC5)CC4)CS3(=O)=O)nn2)cc1 (configuration not stated)	5	·	·	-0.4%	3	0.0
